# Screening data from PubChem.
# Vif-A3F inh: inhibitors of Vif-A3F interaction. HeLa A3F-eYFP + Vif (tagged APOBEC3F with the HIV-1 protein that degrades it), YFP fluorescence increase. Potency, µM (highest dose often 46.1 µM), for inactives: at the highest dose activity, negative = active. 390,000 tested, 0.2% active. AID 602313; further: potency means the concentration at half of the fitted maximal effect; % of control where 0% means no effect; nearly all actives have a fitted effect of over 65% in size
#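 HeLa cells stably expressing A3F-eYFP plus Vif, plated and incubated overnight at 37 deg C, then exposed to compounds overnight at 37 deg C. Blocked degradation read as raised yellow fluorescence (Ex 488/Em 500-530).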
# LDHA block: LDHA (human) enzyme inhibition; P00338; purified LDHA, NADH/diaphorase-resazurin fluorescence; hits give low values; activity change, % (values are at about 110 or 230 µM); 480,000 tested, 0.15% active; in the data active means activity change below about -30%; inconclusive means mostly about -25% to -30%;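 further: plate controls were DMSO wells for no effect and wells without enzyme for full effect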
#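 LDH5 2 nM; NADH 0.06 mM, pyruvate 0.2 mM; 200 mM Tris pH 7.4, EDTA, Tween-20; 5 min RT. Detection: diaphorase 0.133 mg/mL + resazurin 37 µM, fluorescence ex540/em590 at 0 and 20 min; normalized to enzyme-free and DMSO wells.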
# Vif-A3G inh: blocks the Vif interaction with human APOBEC3G | Q9HC16 | HeLa A3G-eYFP + Vif (tagged APOBEC3G with the HIV-1 protein that degrades it), YFP fluorescence, overnight | Potency, µM (highest dose often 46.1 µM), inactives show at the highest dose activity, negative = active, usual class: inhibitors | 410,000 tested, 0.076% active | AID 602310;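 further: potency means the concentration at half of the fitted maximal effect; on the % scale 0 is the no-effect control and ±100 the full control effect; nearly all actives have a fitted effect of over 60% in size; hits raise eYFP signal because A3G escapes Vif-driven loss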
# Target sequence (Q9HC16 whole entry, looked up): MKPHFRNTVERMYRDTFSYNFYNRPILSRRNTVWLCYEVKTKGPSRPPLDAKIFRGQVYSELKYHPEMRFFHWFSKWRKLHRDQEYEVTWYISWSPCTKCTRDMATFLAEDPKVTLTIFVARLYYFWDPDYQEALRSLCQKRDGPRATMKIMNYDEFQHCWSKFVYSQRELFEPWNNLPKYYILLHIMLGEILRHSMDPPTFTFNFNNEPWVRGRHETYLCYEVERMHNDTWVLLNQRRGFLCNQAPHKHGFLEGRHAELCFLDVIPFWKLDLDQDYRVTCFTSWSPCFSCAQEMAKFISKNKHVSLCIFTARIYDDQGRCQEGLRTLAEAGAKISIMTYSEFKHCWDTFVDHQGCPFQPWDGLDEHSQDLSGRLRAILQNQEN
#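 HeLa cells stably expressing Vif and C-terminally eYFP-tagged A3G, seeded overnight at 37 deg C, then exposed to compound by pintool overnight at 37 deg C. Rise in yellow fluorescence (Ex 488/Em 500-530, Acumen) marks blocked Vif-driven A3G degradation.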
# ERG Ets-DNA blk: inhibitors of human ERG Ets domain-DNA interaction; fluorescence polarization, His-ERG Ets domain / labelled DNA; Potency, µM (doses to about 76.9 µM), for inactives: at the highest dose FP activity, negative = inhibition, most hits filed as inhibitors; 370,000 tested, 0.028% active; AID 624246; active means well fitted inhibition curve with a large enough effect in the polarisation, with a control signal flat; inconclusive means small, poorly fitted or top-dose-only effect, or effect the other way, or a change in a side signal; inactive means no such curve, though single readings can be large or run the other way; the % refers to the polarisation;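 further: polarization taken with two DNA probes labelled with fluorescein and Texas red; potency means the concentration at half of the fitted maximal effect; % of control where 0% means no effect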
#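 His-tagged ERG Ets domain (1 uM in the protein solution; 300mM KCl, 50mM Tris-HCl, 1mM EDTA, 1mM DTT, pH 7.5) received compound, then a probe mix of 5 nM fluorescein-DNA and 100nM Texas-615-DNA. Fluorescence polarization was read for both dyes.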
# GRP78 ERSR act: ER stress response induction in glioma. 420,000 tested, 0.02% active. Potency, µM, without a hit: at the top dose activation, actives largely listed as activators. AID 602332. U87-MG GRP78 promoter luciferase reporter, 16 h; further: potency means the concentration at half of the fitted maximal effect; series mostly up to about 76 µM; % of control where 0% means no effect; nearly all actives have a fitted effect of over 35% in size
#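 Stably transfected U87-MG human glioma cells carrying a GRP78-based luminescent sensor were seeded at 1000 cells/well, pin-dosed with compounds and incubated 16 h. Luciferase reagent was then added, and end-point luminescence was read after 10 min at room temperature.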
# An asterisk follows results filed as active; ? = inconclusive; / = not tested or not shown; & = joins results of further samples. Unless noted, the call rests on the fitted dose curve; in most records, active means well fitted curve in the direction sought with a large enough effect; inconclusive means small, poorly fitted or top-dose-only effect, or another doubt; inactive means no such curve, though single readings can be large; an effect the other way counts as inactive or inconclusive. An excerpt; rates above refer to the full screens.
# Abbreviations – A = Vif-A3F inh; B = LDHA block; C = Vif-A3G inh; D = ERG Ets-DNA blk; E = GRP78 ERSR act
Compound: CN1c2ccccc2C(NCCCCCCC(=O)O)c2ccc(Cl)cc2S1(=O)=O (stereo unspecified)
  A = /	B = /	C = /	D = /	E = -8%
Compound: CCCN1CCC[C@H](c2cccc(O)c2)C1
  A = 6%	B = -10	C = -4%	D = -7%	E = -3%&-4%&-4%
Compound: NCCc1c[nH]c2ccc(O)cc12
  A = /	B = /	C = /	D = /	E = 1%
Compound: O=c1c(O)c(-c2ccc(O)c(O)c2)oc2cc(O)cc(O)c12
  A = -6%	B = -5&8	C = -5%&-9%	D = ?	E = ?
Compound: O=C1CC2(CCCC2)CC(=O)N1CCCCN1CCN(c2ncccn2)CC1
  A = 0%	B = 3	C = 2%	D = 27%	E = -1%&-3%&-4%&-3%&-4%
Compound: NCCc1ccc(O)cc1
  A = 4%	B = -7&1	C = 0%	D = 7%	E = -3%&-2%&1%&-5%&-6%
Compound: CC[C@H](OC(C)=O)C(C[C@H](C)N(C)C)(c1ccccc1)c1ccccc1
  A = -2%	B = -5	C = 4%	D = 13%	E = -1%
Compound: CC(=O)[C@H]1CC[C@H]2[C@@H]3CC[C@H]4C[C@H](O)CC[C@]4(C)[C@H]3C(=O)C[C@]12C
  A = -2%	B = -11	C = -1%	D = -3%	E = -1%&1%&-3%
Compound: CN1CCC[C@@H]1c1cccnc1
  A = /	B = /	C = /	D = /	E = -5%
Compound: CC(C)(C)c1ccc(O)cc1
  A = /	B = /	C = /	D = /	E = -3%
Compound: C[C@]12CC[C@H]3[C@@H](CCC4=CC(=O)CC[C@@]43C)[C@@H]1CC[C@@H]2O
  A = 1%&5%	B = -5&-6	C = -6%&-5%	D = -5%&-3%	E = -3%&-3%&6%
Compound: NC1CCCCC1N (stereo unspecified)
  A = /	B = /	C = /	D = /	E = -2%
Compound: CN1CCC23c4c5ccc(O)c4O[C@@H]2[C@H](O)C=CC3C1C5 (stereo partly specified)
  A = 7%	B = -8	C = 0%	D = 2%	E = -1%

# As entered above.
# `CC(=O)[C@H]1CC[C@H]2[C@@H]3CC[C@H]4C[C@H](O)CC[C@]4(C)[C@H]3C(=O)C[C@]12C` in Vif-A3F inh → -2%
# `CC[C@H](OC(C)=O)C(C[C@H](C)N(C)C)(c1ccccc1)c1ccccc1` in LDHA block → -5

# Structural class, those above containing nitrogen in an aromatic ring (three)
# Abbreviations – A = Vif-A3F inh; B = LDHA block; C = Vif-A3G inh; D = ERG Ets-DNA blk; E = GRP78 ERSR act
Compound: NCCc1c[nH]c2ccc(O)cc12
  A = /	B = /	C = /	D = /	E = 1%
Compound: O=C1CC2(CCCC2)CC(=O)N1CCCCN1CCN(c2ncccn2)CC1
  A = 0%	B = 3	C = 2%	D = 27%	E = -1%&-3%&-4%&-3%&-4%
Compound: CN1CCC[C@@H]1c1cccnc1
  A = /	B = /	C = /	D = /	E = -5%

# Quoted at random: 3 entries already listed, in no set order.
# Abbreviations – A = Vif-A3F inh; B = LDHA block; C = Vif-A3G inh; D = ERG Ets-DNA blk; E = GRP78 ERSR act
Compound: CN1CCC23c4c5ccc(O)c4O[C@@H]2[C@H](O)C=CC3C1C5 (stereo partly specified)
  A = 7%	B = -8	C = 0%	D = 2%	E = -1%
Compound: CN1c2ccccc2C(NCCCCCCC(=O)O)c2ccc(Cl)cc2S1(=O)=O (stereo unspecified)
  A = /	B = /	C = /	D = /	E = -8%
Compound: CCCN1CCC[C@H](c2cccc(O)c2)C1
  A = 6%	B = -10	C = -4%	D = -7%	E = -3%&-4%&-4%
